KCNQ2 block: KCNQ2 channel blockers in CHO-K1 cells – cell-based, FluxOR thallium flux, B-score, primary screen (AID 2156); hit rate 1.1% among 310,000; B-score at 10 µM; 20 min; stronger effect = lower value; only compounds with negative scores are shown here; some inactives read as strong as hits;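 active = fluorescence ratio B-score at most minus 3 library SDs, with starting brightness B-score within 2 library SDs, cut at about -5.5 in these data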
Target sequence (O88943 whole entry, looked up): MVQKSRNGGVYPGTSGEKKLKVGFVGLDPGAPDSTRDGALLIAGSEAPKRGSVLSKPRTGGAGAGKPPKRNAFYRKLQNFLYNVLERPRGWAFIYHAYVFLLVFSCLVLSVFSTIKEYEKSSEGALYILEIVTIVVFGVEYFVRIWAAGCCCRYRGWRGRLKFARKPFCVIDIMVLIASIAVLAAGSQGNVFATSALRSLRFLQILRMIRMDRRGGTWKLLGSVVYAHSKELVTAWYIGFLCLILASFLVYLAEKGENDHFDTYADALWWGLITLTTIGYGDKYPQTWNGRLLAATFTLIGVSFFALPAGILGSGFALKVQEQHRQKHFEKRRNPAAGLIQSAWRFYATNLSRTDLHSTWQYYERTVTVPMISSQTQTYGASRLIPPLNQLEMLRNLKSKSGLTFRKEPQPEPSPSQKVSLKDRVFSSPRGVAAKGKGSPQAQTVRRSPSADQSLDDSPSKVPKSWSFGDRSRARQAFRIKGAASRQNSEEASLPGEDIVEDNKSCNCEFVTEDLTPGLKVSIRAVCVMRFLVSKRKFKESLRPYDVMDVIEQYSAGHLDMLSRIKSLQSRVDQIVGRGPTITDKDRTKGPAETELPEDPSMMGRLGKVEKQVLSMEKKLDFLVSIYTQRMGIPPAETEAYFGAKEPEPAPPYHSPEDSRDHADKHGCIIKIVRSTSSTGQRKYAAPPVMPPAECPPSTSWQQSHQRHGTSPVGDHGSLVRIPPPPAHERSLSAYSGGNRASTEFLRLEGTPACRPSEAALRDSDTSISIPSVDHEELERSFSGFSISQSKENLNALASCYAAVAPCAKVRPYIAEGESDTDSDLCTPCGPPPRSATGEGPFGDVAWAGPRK
KCNQ2 block baseline: also measured in KCNQ2 block; calls as there; B-score; measured here: initial fluorescence intensity artifact check;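 brightness before thallium and not channel activity; 0 = typical well and far values either way flag optical interference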
The depositor's hits bear a star; i = inactive. An excerpt, so the mix of outcomes need not match the whole.

SMILES | KCNQ2 block | KCNQ2 block baseline
Cc1ccc2c(C)c(C(=O)N(Cc3ccccc3)C3CCS(=O)(=O)C3)oc2c1 (configuration not stated) | i | 0.02
CCOc1cc(C(=O)NC(C)C2CC3CCC2C3)cc(OCC)c1OCC (configuration not stated) | i | 2.31
Cc1nn2c(N3CCOCC3)cc(C(C)(C)C)nc2c1-c1ccccc1 | i | -2.49
CC(C)N(Cc1nc(-c2ccccc2)no1)C(=O)c1ccc(Br)o1 | i | -0.13
Cc1cccc(-c2onc3ccc(C4(C)OCCO4)cc23)c1 | i | 0.21
CCOc1ccc(C(=O)N/N=C/c2cc([N+](=O)[O-])cs2)cc1 | i | 1.34
Cc1cc(C(=O)CCC(=O)NC(C)c2ccc(S(N)(=O)=O)cc2)c(C)s1 (configuration not stated) | i | 0.32
Cc1nc(N2CCOCC2)c(C#N)c(C)c1Br | i | -0.4
O=C(NNS(=O)(=O)c1ccc(Cl)cc1)c1cnn(-c2ccccc2)c1-n1cccc1 | i | -1.71
Nc1cc2ccccc2oc1=O | i | 1.13
CSc1ccc(S(=O)(=O)N2CCC(C(=O)Nc3ccc(NC(C)=O)cc3)CC2)cc1 | i | 2.01
COC(=O)C1CCN(C(=O)CCC2CCCCC2)CC1 | i | 2.27
O=C(OCC(=O)c1ccccc1Cl)c1cnccn1 | i | -0.89
Cc1ccc2cc(CN(Cc3ccco3)C(=O)c3cccs3)c(=O)[nH]c2c1 | i | 0.11
Cc1cc(CNC(=O)CC2C(=O)NCCN2Cc2ccccc2)nn1C (configuration not stated) | i | 0.49
CCOC(=O)c1sc(Nc2nc3c(OC)cccc3s2)cc1C | i | -1.16
COc1cc(CN(C(=O)c2ccco2)C2CCS(=O)(=O)C2)cc(OC)c1OC (configuration not stated) | i | -0.39
COc1ccc(C(=O)/C=C2/c3ccccc3CC(C)(C)N2C)cc1OC | i | -1.41
CNc1nnc(-c2ccco2)s1 | i | 1.12
CC(=O)c1cccc(NC(=O)C(C)OC(=O)c2cc(=O)[nH]c3ccccc23)c1 (configuration not stated) | i | 0.58
O=C(OCCc1ccccc1)c1cc(O)c(O)c(O)c1 | i | 0.52
O=C(NCCc1ccccc1)C1CCN(S(=O)(=O)c2ccc(-n3cnnn3)cc2)CC1 | i | -0.15
Fc1c(F)c(F)c(NC2=NCCCCC2)c(F)c1F | i | -0.71
COc1ccc(C/C(C)=N/NC(=O)c2ccc(Cl)cc2)cc1 | i | 1.38
Cc1ccc(-c2nnc(N3CCN(CCO)CC3)c3ccccc23)cc1 | i | -0.79
N=C1c2c(cc(=O)n3c2[nH]c2ccccc23)CN1CCN1CCOCC1 | i | 0.13
Cc1noc(NS(=O)(=O)c2ccc(NC(=O)/C=C/c3ccc(Br)cc3)cc2)c1C | i | -0.18
CCCN1CCC(NC(=O)Cc2cccc(C)c2)CC1 | i | 0.95
CC(C)(C)NC(=O)[C@@H]1C[C@@H]2CCCC[C@@H]2CN1C[C@@H](O)[C@H](Cc1ccccc1)NC(=O)[C@H](CC(N)=O)NC(=O)c1ccc2ccccc2n1 | i | -1.29
c1ccc(-c2noc(C34CC5CC(CC(C5)C3)C4)n2)nc1 | i | 0.26
O=C1CC2(CCCC2)C(=O)N1c1ccc(S(=O)(=O)NCC2CC2)cc1Cl | i | -0.03
Cc1nnc(SCC(=O)Nc2c(Cl)cccc2Cl)[nH]c1=O | i | 1.38
Cc1ccc(C(=O)Oc2ccccc2N2C(=O)C3CCC(C)CC3C2=O)cc1 (configuration not stated) | i | -1.03
CC1(C)CC(=O)c2cnc(NCC3CCCO3)nc2C1 (configuration not stated) | i | 1.25
Cc1cc2ncn(C3CC(=O)N(C)C3=O)c2cc1C (configuration not stated) | i | -0.03
O=C(NC1CCCCC1)C(c1cccnc1)N(C(=O)c1csnn1)c1ccc(F)cc1 (configuration not stated) | i | 2.19
O=c1[nH]c2ccc(S(=O)(=O)Nc3ccccc3O)cc2[nH]1 | i | 0.24
Cc1c2n(c3ccccc13)CC/C2=N\O | i | 0.01
CCCC(=O)c1c(NC(C)C)cc(C)oc1=O | i | 0.01
Cc1cc(C)nc(N2CCN(S(=O)(=O)c3ccc(F)cc3)CC2)n1 | i | 1
O=C(Cn1nc(C(F)F)cc1C(F)F)NNC(=S)Nc1ccc(F)cc1 | i | -0.49
CC1(C)Cc2cccc(OCC(=O)NCCOc3ccccc3)c2O1 | i | -0.02
CCOC(=O)c1c(S(=O)(=O)N2CCCC(C(=O)Nc3ccc(C)cn3)C2)c(C)n(C)c1C (configuration not stated) | i | -0.01
COc1cc(C(=O)NCc2cccc(Cl)c2)ccc1OCC(=O)N1CCOCC1 | i | 0.89
Cc1ccc(NS(=O)(=O)c2ccc3c(c2)CC(=O)N3)c(C)c1 | i | 2.84
CCN(CC)CCNC(=O)Cn1nc(Cc2ccncc2)c2ccccc2c1=O | i | -0.58
COc1cc(/C=N/NC(=O)c2ccncc2)ccc1OCC(=O)Nc1cccc([N+](=O)[O-])c1 | i | -0.9
Cc1oc(-c2ccccc2)nc1C(=O)N1CCN(c2ccc(F)cc2)CC1 | i | -1.76
c1ccc2sc(SCSc3nc4ccccc4s3)nc2c1 | i | -0.1
Cn1nnnc1NCc1ccccc1F | i | 1.54
CC(OC(=O)c1nn(C)c(=O)c2ccccc12)C(=O)NCc1ccc2c(c1)OCO2 (configuration not stated) | i | 0.91
CC1CCCC(C)N1C(=O)Cn1nnc(-c2ccccc2)n1 (configuration not stated) | i | 0.25
O=C(NCc1ccccc1Cl)c1ccc(CS(=O)Cc2ccc(Cl)cc2)o1 (configuration not stated) | i | -0.88
CCN1CCN(c2ncc(C(=O)Nc3ccccc3C(=O)OC)c3ccccc23)CC1 | i | 0.37
CCN1CCN(C(=O)Cn2nc(C)c3sc4ccccc4c3c2=O)CC1 | i | -0.13
CCOC(=O)c1c(NC(C)=O)sc(C(=O)NC2CCCC2)c1C | i | -0.84
N#Cc1cn(CCCOc2ccccc2)c2ccccc12 | i | 4.16
Cc1nnsc1C(=O)Nc1ccc(Cl)cc1Cl | i | -0.16
COc1cc(NC(=O)Cn2c(=O)n(-c3cccc(C)c3)c(=O)c3c(C)c(C)sc32)cc(OC)c1 | i | -0.78
CCCCN(C(=O)CCC(=O)Nc1cc(C)on1)C(C(=O)NC1CCCC1)c1ccc(OCC)cc1 (configuration not stated) | i | -0.5
(cont.)
SMILES | KCNQ2 block | KCNQ2 block baseline
O=P(Cc1cc(Br)cc(Br)c1OCCO)(c1ccccc1)c1ccccc1 | i | -1.22
C/C(=N/NC(=O)c1ccc(C)nc1)c1ccc2c(c1)CCCC2 | i | -0.22
CCCn1c(NCc2c[nH]c3ccccc23)nc2ccccc21 | -7.94* | -1.42*
O=C1CC(c2ccccc2)CC(O)=C1C=NCC1CCCO1 (configuration not stated) | i | 0.21
COc1ccc(CCN2CC(C(=O)NCc3nc4ccccc4n3C)CCC2=O)cc1 (configuration not stated) | i | 0.01
O=C(O)c1cccc(S(=O)(=O)NCC2CCCO2)c1 (configuration not stated) | i | 0.03
COC(=O)c1ccc(S(=O)(=O)c2ccc([N+](=O)[O-])cc2)cc1 | i | 0.02
O=C(CCN1CCOCC1)N/N=C/c1cc(Br)cc(Br)c1O | i | -1.6
O=C(CN1CCN(S(=O)(=O)c2ccc(Cl)cc2)CC1)NC(=O)NC1CCCCC1 | i | -0.45
Cc1ccc(C(=O)NC2CCN(CC(=O)Nc3c(C)cc(C)cc3C)CC2)cc1 | i | 1.59
Cc1cc(C)nc(NC(=O)COc2cc(Cl)cc(Cl)c2)n1 | i | 0.63
O=C(COc1ccccc1F)Nc1ccc2c(c1)OCCO2 | i | -0.2
CCCOc1ccc(/C=N/NC(=O)C2CC2)c(OCCC)c1 | i | -0.49
O=C(N/N=C/c1cccc(Oc2ccccc2)c1)c1cc[n+]([O-])cc1 | i | 0.34
CN(Cc1c(F)cccc1Cl)S(=O)(=O)c1cccs1 | i | 0.01
COc1cc(/C=N\Nc2ccc([N+](=O)[O-])cc2)ccc1OCC(=O)Nc1ccc(C)c(C)c1 | i | -0.7
O=C(Nc1ccccc1)C1CC=CCC1C(=O)OCC1CCCO1 (configuration not stated) | i | 0.29
CN(Cc1ccccc1)C(=O)c1nc2ccccn2c1CN1CCc2sccc2C1 | -5.89* | -0.28*
O=C(N/N=C/C=C/c1ccccc1[N+](=O)[O-])c1cc(-c2ccccc2)n[nH]1 | i | -0.2
CCOC(=O)Cc1nnc(NC(=O)CCc2ccccc2)s1 | i | 0.11
Cc1ccc(S(=O)(=O)N2CCN(C(=O)C3CCCO3)CC2)cc1C (configuration not stated) | i | 1.26
CC(=O)Nc1ccc(S(=O)(=O)N2CCN(c3nc4ccccc4n3CC(C)C)CC2)cc1 | i | 0.09
CCOc1ccc2nc(N/C(N)=N/C(=S)Nc3cccc(OC)c3)nc(C)c2c1 | i | 0.73
CC(C)Cc1ccc(CN2CCCC(NC(=O)CSc3nncn3C)C2)cc1 (configuration not stated) | i | -0.62
O=C(N/N=C/c1cc2c(cc1[N+](=O)[O-])OCO2)c1ccccn1 | i | -0.15
Cc1cc(=O)n(C(NC(=O)c2ccccc2)C(=O)c2ccccc2)cn1 (configuration not stated) | i | 2.03
CN(Cc1ccccc1)C(=O)c1cccc(NC(=O)c2ccco2)c1 | i | 0.62
CCOc1ccc(S(=O)(=O)N(CC(=O)NCc2ccncc2)c2ccc(C)cc2)cc1 | i | -1.74
O=C(c1ccc(COc2c(F)c(F)c(F)c(F)c2F)o1)N1CCN(Cc2ccc3c(c2)OCO3)CC1 | i | -1.12
Cc1nnc(SCC(=O)NC2CCCc3c2cnn3-c2ccc(F)cc2F)o1 (configuration not stated) | i | -1.26
CCOc1ccc(/C=N/N2C(C)CCCC2C)cc1 (configuration not stated) | i | -0.2
CCn1c(COc2ccc(C)cc2)nnc1SCc1nc2ccccc2[nH]1 | i | 0.07
O=C(CCC(=O)N1CCSc2ccccc21)NCc1cccc(Br)c1 | i | -0.19
O=C(/C=C/c1cccs1)Nc1ccc(Br)cn1 | i | 0.95
COc1ccc(N(C)C(=O)C2CCCN2S(=O)(=O)c2cccc3nsnc23)c(OC)c1 (configuration not stated) | i | -1.53
COc1ccc(Cn2nnnc2C(c2cc3cc(C)cc(C)c3[nH]c2=O)N2CCOCC2)cc1 (configuration not stated) | -6.66* | -1.98*
COc1ccc(C(=O)N2CCC(C(=O)Nc3ccc(OC)c(OC)c3)CC2)cc1 | i | 0.26
Cc1nc2ccccc2c(=O)n1/N=C/c1cccs1 | i | 0.04
O=C(NCCc1ccc(Cl)cc1)c1ccc2ccccc2n1 | i | -1
COc1ccc(NC(=O)c2c(C(F)(F)F)nn(C)c2SCc2ccccc2Cl)cc1 | i | -1.85
COc1cccc(CN(C)C(c2ccccc2)c2ccccc2)c1OC | i | 0.46
COc1ccc2cc(CCNC(=O)c3ccc(S(=O)(=O)N4CCOCC4)cc3)c(=O)[nH]c2c1 | i | 0.61
c1ccc(-c2nnc(CSc3nnc(-c4ccncc4)n3Cc3ccco3)o2)cc1 | i | 1.97
Cc1cccc(N2CCN(C(=O)c3c(Cl)cnn3C)CC2)c1C | i | -0.02
Cc1ccc(CNc2ccc3c(c2)ncn3C)cc1 | i | 0.52
NC(=O)NC(=O)COC(=O)/C=C/c1cccc(Br)c1 | i | 2.4
NCCc1nnc(SCc2ccccc2)o1 | i | 1.1
CC(=O)NCCOc1c(C)cc(S(N)(=O)=O)cc1C | i | -0.19
CCN(Cc1ccccc1)S(=O)(=O)c1ccc(F)cc1 | i | 3.59
O=C(c1ccc2ccccc2c1)C1CCCN(C(=O)c2noc3c2CCCC3)C1 (configuration not stated) | i | -1.91
COc1ccc(C2NC(=O)C(C)S2)cc1 (configuration not stated) | i | 1.92
C#CCSc1ncc(-c2ccccc2)cn1 | i | -1.05
CC1(C)CC(=O)C(c2c[nH]c3ccccc23)C(=O)C1 | i | -0.16
CNc1ccccc1C(C)(C)c1ccn[nH]1 | i | -0.12
CCCCCCCc1c(C#N)c(N)[nH]c(=S)c1C#N | i | -2.52
COCCCN(C(=O)CCOc1ccc(C)cc1)c1c(N)n(Cc2ccccc2)c(=O)[nH]c1=O | i | -0.55
O=C(c1cc(-c2ccccc2)on1)N1CCCCCC1 | i | 1.76
O=C(Nc1ccc(S(=O)(=O)N2CCCCC2)cc1)C1CCN(C(=O)c2ccc(F)cc2)CC1 | i | 0.03
CCOc1ccc(C(=O)NCC(=O)OCc2cc(C(C)=O)ccc2OC)cc1 | i | 2.26

Structural class: the entries above with a Cl atom (14)
SMILES | KCNQ2 block | KCNQ2 block baseline
O=C(NNS(=O)(=O)c1ccc(Cl)cc1)c1cnn(-c2ccccc2)c1-n1cccc1 | i | -1.71
O=C(OCC(=O)c1ccccc1Cl)c1cnccn1 | i | -0.89
COc1ccc(C/C(C)=N/NC(=O)c2ccc(Cl)cc2)cc1 | i | 1.38
O=C1CC2(CCCC2)C(=O)N1c1ccc(S(=O)(=O)NCC2CC2)cc1Cl | i | -0.03
Cc1nnc(SCC(=O)Nc2c(Cl)cccc2Cl)[nH]c1=O | i | 1.38
COc1cc(C(=O)NCc2cccc(Cl)c2)ccc1OCC(=O)N1CCOCC1 | i | 0.89
O=C(NCc1ccccc1Cl)c1ccc(CS(=O)Cc2ccc(Cl)cc2)o1 (configuration not stated) | i | -0.88
Cc1nnsc1C(=O)Nc1ccc(Cl)cc1Cl | i | -0.16
O=C(CN1CCN(S(=O)(=O)c2ccc(Cl)cc2)CC1)NC(=O)NC1CCCCC1 | i | -0.45
Cc1cc(C)nc(NC(=O)COc2cc(Cl)cc(Cl)c2)n1 | i | 0.63
CN(Cc1c(F)cccc1Cl)S(=O)(=O)c1cccs1 | i | 0.01
O=C(NCCc1ccc(Cl)cc1)c1ccc2ccccc2n1 | i | -1
COc1ccc(NC(=O)c2c(C(F)(F)F)nn(C)c2SCc2ccccc2Cl)cc1 | i | -1.85
Cc1cccc(N2CCN(C(=O)c3c(Cl)cnn3C)CC2)c1C | i | -0.02

Screens: PubChem, Johns Hopkins Ion Channel Center
